CBX7 inh – CBX7 chromodomain binding inhibitors, primary screen, biochemical, AlphaScreen | Chromobox protein homolog 7 (Homo sapiens), O95931 | AlphaScreen His6-CBX7 / biotin-H3K27me3 peptide binding; stronger effect = lower value | normalised signal (fraction of DMSO) (no concentration beside the values) | actives 1.1% (n = 66,000) | AID 1224903, 2016; in the data active means normalised signal below about 0.5;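 further: 100 nL library stock added to about 20 µL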
Target sequence (O95931 whole entry, looked up): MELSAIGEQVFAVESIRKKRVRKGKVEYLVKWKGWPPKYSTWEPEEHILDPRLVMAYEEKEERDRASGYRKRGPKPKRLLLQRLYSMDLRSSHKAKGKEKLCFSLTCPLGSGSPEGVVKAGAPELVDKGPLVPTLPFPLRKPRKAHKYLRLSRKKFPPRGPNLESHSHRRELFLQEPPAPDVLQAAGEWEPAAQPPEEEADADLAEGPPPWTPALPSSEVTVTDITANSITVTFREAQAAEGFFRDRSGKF
CBX7 inh z-score – recorded beside CBX7 inh, whose call it bears; z-score; measured here: z-score of CBX7 signal; some inactives read as strong as hits; reference of the scale not given here;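 same signal on another scale; lower means less binding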
An asterisk follows results filed as active; & = joins results of further samples. Some of the compounds tested; the hit share may differ from the screen's.

SMILES	CBX7 inh	CBX7 inh z-score
Cn1c(=O)n(CC(=O)N2CCCCC2)c2ccccc21	1.08	1.94
Cc1cc(=O)n2nc(N3CCC(C(=O)NC4CCCCC4C)CC3)sc2n1 (stereo not drawn)	1.22	2.1
CC(C)CN(CCNC(=O)CN1N=C(c2ccc(Cl)cc2)CCC1=O)CC(C)C	1.01	0.104
Cc1ccc(CNC(=O)CCc2c(C)nc3c(-c4ccc(F)cc4)c(C)nn3c2C)cc1	1.08	2.03
Cc1ccccc1C(=O)Nc1c2c(nn1-c1ccc(F)cc1)CSC2	1.03	0.46
COc1ccc(C2NCCc3c2[nH]c2ccccc32)cc1CSc1nc2ccccc2[nH]1 (stereo not drawn)	0.895	-3.19
CC12COC3(C(=O)N4CCN(c5ccccn5)CC4)CC1CCC32C (stereo not drawn)	1.06	0.717
COc1ccc(-c2nc(CN3CCC(C(=O)NCc4cccs4)CC3)c(C)o2)cc1	1.01	0.368
COc1cccc(NC(=O)CCc2nnc3ccc(N4CCOCC4)nn23)c1	0.991	-0.176
Cc1ccc2c(c1)N(CCCC(=O)NCCCN1CCOCC1)C(=O)CO2	1.55	1.12
C=C(C)Cn1c(C2CC(=O)N(Cc3ccccc3)C2)nc2ccccc21 (stereo not drawn)	1.03	0.247
O=C1CC(c2nc3ccccc3n2Cc2c(F)cccc2Cl)CN1Cc1ccccc1 (stereo not drawn)	0.888	-0.801
C#CC(C)(C)NS(=O)(=O)c1cc(-c2nnc(Nc3ccccc3C)c3ccccc23)ccc1C	0.775	-1.06
CC1CCc2c(sc(NC(=O)c3ccccc3CCc3ccccc3)c2C#N)C1 (stereo not drawn)	0.977	-0.273
Clc1ccc(C(c2ccc(Cl)cc2)N2CCN(CCCc3c[nH]c4ccccc34)CC2)cc1	0.597	-2.88
Cc1ccc(F)cc1NC(=O)CNC(=O)Cn1cnc2sc(C)c(C)c2c1=O	1.1	2.91
COc1ccc(-c2noc(CCC(=O)N(C)Cc3ccccc3)n2)cc1	1.09	1.19
CCOc1ccccc1C(=O)N1CC(=O)Nc2ccc(Br)cc2C1c1ccccc1 (stereo not drawn)	1	0.11
Cc1nccc2[nH]c(=O)c(C(=O)NCCc3ccccc3)cc12	0.903	-1.82
CN1CCN(C(=O)c2cc(-c3ccc(F)cc3)on2)CC1	1.04	1.87
NC(=O)CNC(=O)c1ccc(C#Cc2ccccc2)o1	1.01	0.155
Cc1ccc(-n2c(-c3cccc(C)c3)nc3c(cnn3-c3ccccc3)c2=O)cc1	0.82	-7.13
COC(=O)C1=C(C)NC(=O)CC1c1ccccc1 (stereo not drawn)	1.02	0.316
O=C1CCc2cc(S(=O)(=O)N3CCCCC3)ccc2N1	0.997	-0.0631
NC(=O)C1CCN(C(=O)c2cnn(-c3ccccc3)c2NC(=O)c2ccccc2F)CC1	0.985&1.06	-0.594&1.16
CCOC(=O)c1cnc2c(OC)cccc2c1Nc1ccc(F)c(Cl)c1	0.909	-1.58
O=C(Cc1ccccc1)Nc1c2c(nn1-c1cccc(Cl)c1)CS(=O)(=O)C2	1	0.0264
Cc1ccc(NC(=O)Cc2cn(Cc3cccc(Cl)c3)c3ccccc23)cc1F	1	0.0292
CCOC(=O)c1c(NC(=O)c2ccc(Cl)cc2)sc2c1CCCCC2	1.74	10.3
Cc1nc2c(cnn2-c2ccc(Cl)cc2)c(=O)n1-c1ccc2c(c1)OCCO2	1.07	1.01
CC(C)Oc1ccc(CNC(=O)Cc2cccs2)cc1	1.03	0.713
O=C(Cn1nnc(-c2ccccc2F)n1)NCc1ccccc1	1.15	1.48
CCN1CCCC1CNC(=O)c1cc(-c2ccc(OC)cc2)nc2ccc(C(C)C)cc12 (stereo not drawn)	1.21	3.77
O=C(Cc1cn(Cc2cccc(Cl)c2)c2ccccc12)Nc1nc2ccccc2s1	0.982	-0.386
Cc1c(C(=O)NC(C)C)sc2ncn(CC(=O)N3CCCCC3C)c(=O)c12 (stereo not drawn)	1.06	0.352
Cc1ccccc1CN1C(=O)CSc2ccc(C(=O)NCCc3ccc(Cl)cc3)cc21	1.2	1.91
Cc1ccc(N2C(=O)C(N3C(=O)c4ccccc4C3=O)C2c2ccc(Cl)cc2Cl)cc1 (stereo not drawn)	0.919	-2.38
Cc1cc(Nc2ccc(N3CCOCC3)cc2)n2nnnc2n1	0.795	-2.74
COc1ccc(-c2cn3ccsc3n2)cc1	0.818	-1.97
CC1CC(C)CN(C(=O)c2cc(-c3ccccn3)nc3ccc(S(=O)(=O)N4CCOCC4)cc23)C1 (stereo not drawn)	0.749	-4.97
O=C(CCn1nc(-c2ccc(Cl)cc2)c2ccccc2c1=O)N1CCC(Cc2ccccc2)CC1	0.918	-1.94
CC1CCN(S(=O)(=O)c2ccc3nc(-c4ccccn4)cc(C(=O)NCCN4CCCC4)c3c2)CC1	0.977	-1.13
COc1ccc(CNC(=O)[C@H](CCS(C)(=O)=O)N2Cc3ccccc3C2=O)cc1	1.01	0.0887
Cc1ccccc1-n1c(=O)cc(N2CCN(c3ccc(F)cc3)CC2)[nH]c1=O	1.13	2.38
COc1cccc(CN2CCN(Cc3ccc4ccccc4c3)CC2)c1	0.813	-2.25
O=C(Cn1nc(Cc2ccncc2)c2ccccc2c1=O)N1CCCc2ccccc21	1.07	1.81
O=c1oc2ccc3ccccc3c2cc1-c1nnc(Nc2ccc(F)cc2)s1	1.05	0.55
Cc1cccc(-c2nc(C(=O)NCCC(C)C)c(C)o2)c1	0.979	-0.3
CCc1nc(Nc2ccc(F)c(Cl)c2)c2c3c(sc2n1)CCCC3	1.09	1.7
CN(C)C(=O)N1CCC(C(=O)NCc2ccc(F)cc2Cl)CC1	1.01	0.113
Cn1c(C(=O)N2CCC3(CC2)OCCO3)cc2sc(Cl)cc21	0.977	-0.934
CCCCCNc1nc(CCC)c2c(c1C#N)CCCC2	1.23	6.9
CCOC(=O)c1c(C)n(-c2ccccc2C)c2ccc(OC)cc12	1.12	4.02
O=C(COc1ccc(Cl)cc1Cl)Nc1c2c(nn1-c1ccc(F)cc1)CS(=O)(=O)C2	1.02	0.245
O=C(NCc1cccnc1)C1C2C=CC3(CN(Cc4ccccc4Cl)C(=O)C13)O2 (stereo not drawn)	1.07	2.89
CCC(C)NC(=O)c1cnc(N2CCN(c3ncccn3)CC2)c2ccccc12 (stereo not drawn)	1.11	0.675
CCC(=O)N1CCc2cc(S(=O)(=O)Nc3ccc4c(c3)OCCO4)ccc21	1.07	1.31
COc1ccc(-c2nc3cc(C)ccn3c2NC(=O)C2CC2)cc1	1.04	0.346
CCN(CC)CCCNC(=O)c1sc2ncn(CC(=O)N3CCCCC3)c(=O)c2c1C	1.04	1.08
CC(C)c1ccc(NC(=O)CN(C)S(=O)(=O)c2cccc3cccnc23)cc1	1.08	1.88

(more compounds)
SMILES	CBX7 inh	CBX7 inh z-score
COc1ccc(CCNC(=O)C2c3ccccc3C(=O)N2C(C)c2ccccc2)cc1OC (stereo not drawn)	0.866	-1.59
COc1ccccc1-c1cc(C(=O)N2CCOCC2)no1	0.938	-0.711
CCOc1ccc(Nc2cc(C)nc3c(C)cc(C)cc23)cc1	0.981	-0.273
CC(C)CCNC(=O)c1cc(-c2ccncc2)nc2ccccc12	0.997	-0.0303
CCOC(=O)c1ccc(NC(=O)CC2Nc3cc(C)c(C)cc3NC2=O)cc1 (stereo not drawn)	0.952	-1.45
Cc1ccc(Sc2cc(C(=O)NCCN3CCOCC3)c3ccccc3n2)cc1	0.924	-1.64
Cc1cc(Cl)ccc1NC(=O)CC1Nc2ccccc2NC1=O (stereo not drawn)	1.02	0.146
COCCNS(=O)(=O)c1ccc2c(c1)CCN2C(=O)C1CCC1	1.07	1.84
COc1ccc(/C=C/c2ccc3cccc(OCc4ccccc4Cl)c3n2)c(OC)c1OC	1.47	5.55
CCN1CCN(CCCNS(=O)(=O)c2ccc3c(c2)CCN3C(=O)C2CCC2)CC1	1.01	0.311
CCOc1ccccc1NC(=O)CN1C(=O)CC(c2ccccc2)Sc2ccccc21 (stereo not drawn)	0.837	-2.73
Cc1ccc(N2C(=O)CC(Cc3cccc(C)c3)C2=O)cc1 (stereo not drawn)	1.05	1.87

Profiles, looked up by structure. Values in the order: CBX7 inh, CBX7 inh z-score
`COc1ccc(C2NCCc3c2[nH]c2ccccc32)cc1CSc1nc2ccccc2[nH]1` (stereo not drawn) is entered as 0.895, -3.19
`CCOC(=O)c1c(NC(=O)c2ccc(Cl)cc2)sc2c1CCCCC2` is entered as 1.74, 10.3
`COC(=O)C1=C(C)NC(=O)CC1c1ccccc1` (stereo not drawn) is entered as 1.02, 0.316
`CC(C)CN(CCNC(=O)CN1N=C(c2ccc(Cl)cc2)CCC1=O)CC(C)C` is entered as 1.01, 0.104

Going on with the list.
SMILES	CBX7 inh	CBX7 inh z-score
Fc1ccc(Nc2c3c(nc4ccc(Cl)cc24)CCCC3)c(F)c1	0.939	-0.0831
COc1ccc(NC(=O)CCCNC(=O)Cn2cnc3sc(C)c(C)c3c2=O)c(OC)c1	0.968	-0.358
COc1ccc(Nc2cc(C(=O)N3CCc4ccccc4C3)c3ccccc3n2)c(OC)c1	0.794	-3.87
COc1ccc2c(c1)-c1nc(NC(=O)c3cccs3)sc1CC2	1.1	2.85
O=C(c1cc2n(n1)C(C(F)(F)F)CC(c1ccc(Cl)cc1)N2)N1CCCC1 (stereo not drawn)	0.995	-0.105
COc1cccc(C2=NOC(C(=O)Nc3ccc(C#N)cc3)C2)c1OC (stereo not drawn)	0.991	-0.327
Cc1ccc(CN2CCN(CC(=O)NCc3ccccc3)C2=O)cc1	0.994	-0.104
COc1ccc(Nc2ncc(C(=O)N3CCN(c4ccc(F)cc4)CC3)c3ccccc23)cc1	0.794	-3.46
Cc1ccccc1-c1nc(CS(=O)(=O)CC(=O)NCCCc2ccccc2)c(C)o1	0.612	-1.37
CCOc1ccc(-c2cc(C(=O)NCCCN(CC)CC)c3ccccc3n2)cc1	1.19	3.86
CCOC(=O)c1oc2ccccc2c1NC(=O)c1ccccc1C	1.16	5.99
CCc1ccccc1Nc1cc(C(=O)NC(C)c2ccccc2)c2ccccc2n1 (stereo not drawn)	1.14	2.18

Exported in markdown: six of the compounds above
| SMILES | CBX7 inh | CBX7 inh z-score |
| --- | --- | --- |
| CCc1ccccc1Nc1cc(C(=O)NC(C)c2ccccc2)c2ccccc2n1 (stereo not drawn) | 1.14 | 2.18 |
| COc1ccc(Nc2ncc(C(=O)N3CCN(c4ccc(F)cc4)CC3)c3ccccc23)cc1 | 0.794 | -3.46 |
| CCOc1ccc(-c2cc(C(=O)NCCCN(CC)CC)c3ccccc3n2)cc1 | 1.19 | 3.86 |
| Fc1ccc(Nc2c3c(nc4ccc(Cl)cc24)CCCC3)c(F)c1 | 0.939 | -0.0831 |
| COc1ccc2c(c1)-c1nc(NC(=O)c3cccs3)sc1CC2 | 1.1 | 2.85 |
| O=C(c1cc2n(n1)C(C(F)(F)F)CC(c1ccc(Cl)cc1)N2)N1CCCC1 (stereo not drawn) | 0.995 | -0.105 |

The results go on.
SMILES	CBX7 inh	CBX7 inh z-score
CCc1ccccc1N(C)S(=O)(=O)c1ccc2[nH]cc(C(=O)NCCN(C)C)c(=O)c2c1	0.981	-0.204
COc1ccccc1-c1cc(C(=O)NC2CCCCC2)no1	1.02	0.0907
Cc1ccc2nc(-c3cccc(NC(=O)c4cccc(F)c4)c3)oc2c1	1.27	1.08
Fc1ccccc1-c1nc(N2CCN(c3cccc(Cl)c3)CC2)c2ccccc2n1	0.982	-0.0306
Cc1ccc(Nc2ncc(C(=O)Nc3ccccc3F)c3ccccc23)cc1Cl	1.13	3.63
Cc1nc(NC(=O)c2ccccc2)sc1-c1csc(Nc2cccc(Cl)c2)n1	0.846&1.09	-2.87&0.104
Cc1n[nH]c(C)c1CCCCOc1ccc(C(C)(C)C)cc1	0.815	-2.65
O=C(Nc1ccc(F)cc1F)C1CCCN1S(=O)(=O)c1cccc2cccnc12 (stereo not drawn)	0.918	-2.75
O=C(CN1N=C(c2ccccc2)CCC1=O)NCc1cccs1	1.11	1.74
CC1CCC(NC(=O)c2cc3sccc3n2Cc2ccc(F)cc2)CC1 (stereo not drawn)	0.96	-1
CC(c1ccccc1)N1CCC(CNC(=O)Nc2ccc(Cl)cc2)C1 (stereo not drawn)	0.998	-0.059
Cc1cc(C(=O)Nc2ccc(F)c(Cl)c2)no1	1.01	0.338
CCc1ccc(NC(=O)CC2Oc3ccc(C)cc3NC2=O)cc1 (stereo not drawn)	1.03	1.17
O=C(NCc1ccccc1Cl)c1ccc2c(=O)n(CCc3ccccc3)c(=O)[nH]c2c1	0.981	-0.483
CCN(CC)C(=O)COc1ccc(-c2nnc(Nc3ccc(C(=O)NC)cc3)c3ccccc23)cc1	1.02	0.117
Cc1ccccc1C(=O)Nc1ccc2oc(-c3ccncc3)nc2c1	1.09	1.51
CCCCCNC(=O)c1ccc2c(c1)ncn2-c1cc(C)cc(C)c1	0.753	-4.29
O=C(CCn1c(=O)[nH]c2ccccc2c1=O)N1CCC(N2CCCCC2)CC1	1.1	0.291
CCOC(=O)c1cc(-c2ccccc2)n(CCC(=O)NC2CCCCCC2)c1C	0.803	-2.12
C=CCn1c(C(Cc2ccccc2)NC(=O)c2ccccc2)nc2ccccc21 (stereo not drawn)	0.966	-0.646
COc1cccc(CNc2cc(C)nc3nc(C)nn23)c1	0.908	-2
CCc1cccc(Nc2c3c(nc4ccccc24)CCC3)c1	0.953	-1.4
O=C(Cn1cnc2sc3c(c2c1=O)CCCC3)NCc1ccccc1	0.973	-0.722
COc1ccc(NC(=O)c2nn(-c3ccccc3OC)c(=O)c3ccccc23)cc1Cl	1.05	1.35
CN(C)C(=O)CSc1nnc(-c2cccnc2)n1-c1ccccc1	1.19	1.85
CCOC(=O)N1CCN(c2c(NCCCN3CCN(C4CCCCC4)CC3)c(=O)c2=O)CC1	0.987	-0.232
C=C(C)Cn1c(CCNC(=O)c2ccc(F)cc2)nc2ccccc21	0.943	-1.72
COc1ccccc1CNC(=O)C1CCCN(c2nnc(-n3cccc3)s2)C1 (stereo not drawn)	0.948	-1.13
COc1ccccc1-c1nc(-c2ccc(C)cc2)no1	1.2	4.98

Screening data (PubChem BioAssay)
